# Rango dissoc inh = inhibition of RanGTP-driven Rango-importin beta dissociation | Potency, µM (doses to about 46.1 µM), for inactives: top-dose activity change, negative = inhibition | Biochemical FRET Rango-importin beta, RanGTP-induced dissociation | AID 540253 | 0.071% of 340,000 active | O95149+P62826; active means falling FRET ratio curve, often poorly fitted, with flat reads before Ran was added; inconclusive means other falling curves, or compound fluorescence or quenching; inactive means flat or rising ratio curve;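 also: potency is read from the fitted curve at half-maximal effect; % of control where 0% means no effect; nearly all actives have a fitted effect of over 45% in size; -100% = wells without RanGTP and RCC1; the record marks most hits as doubtful in a second field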
#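 Recombinant Rango FRET biosensor (EYFP–snurportin 1 IBB–cerulean CFP10) at 0.1 uM premixed with 0.25 uM importin beta in PBS, 1 mM DTT, 0.02% Tween-20, 0.1% BSA. Compound added 5 min; RanGTP-RCC1 (0.6 uM Ran, 2 mM GTP, 0.2 uM RCC1) then triggers release, read at 45 min.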
# Rango complex inh = inhibitors of Rango-importin beta complex formation | Q14974 | 0.031% of 340,000 active | Rango CFP/YFP FRET sensor + importin beta, 45 min | Potency, µM (series often up to 92.2 µM), for the others: at the top dose inhibition of complex formation; active = rising FRET ratio curve, often small or poorly fitted; inconclusive = mostly compound fluorescence or quenching in the first reads; inactive = flat curves in all reads;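 also: potency is read from the fitted curve at half-maximal effect; 0% = DMSO wells and 100% = buffer wells lacking importin beta; nearly all actives have a fitted effect of over 15% in size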
# Target sequence (Q14974 whole entry, looked up): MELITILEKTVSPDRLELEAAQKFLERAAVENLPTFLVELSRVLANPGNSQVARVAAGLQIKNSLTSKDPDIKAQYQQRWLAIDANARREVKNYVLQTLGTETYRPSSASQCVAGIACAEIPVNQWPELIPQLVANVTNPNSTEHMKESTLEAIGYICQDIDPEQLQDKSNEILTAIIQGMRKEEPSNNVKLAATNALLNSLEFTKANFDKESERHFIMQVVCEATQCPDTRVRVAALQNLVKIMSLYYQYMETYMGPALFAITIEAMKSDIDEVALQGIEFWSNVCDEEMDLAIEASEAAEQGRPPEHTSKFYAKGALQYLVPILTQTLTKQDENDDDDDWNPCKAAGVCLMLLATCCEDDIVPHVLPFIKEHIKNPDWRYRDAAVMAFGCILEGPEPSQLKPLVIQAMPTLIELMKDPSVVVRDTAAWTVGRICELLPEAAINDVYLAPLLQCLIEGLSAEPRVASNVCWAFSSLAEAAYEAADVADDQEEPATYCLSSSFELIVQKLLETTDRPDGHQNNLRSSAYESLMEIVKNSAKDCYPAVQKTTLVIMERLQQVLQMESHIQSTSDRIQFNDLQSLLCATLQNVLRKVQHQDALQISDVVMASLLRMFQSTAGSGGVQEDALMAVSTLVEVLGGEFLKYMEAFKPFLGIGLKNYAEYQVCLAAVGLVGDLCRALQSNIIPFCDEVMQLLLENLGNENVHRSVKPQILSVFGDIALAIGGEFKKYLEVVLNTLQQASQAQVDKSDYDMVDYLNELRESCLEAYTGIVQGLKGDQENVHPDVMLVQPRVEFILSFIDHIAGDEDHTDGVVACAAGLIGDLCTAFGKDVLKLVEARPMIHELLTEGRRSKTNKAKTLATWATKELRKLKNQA
#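 Inhibition scored from the CFP 486 nm/YFP 530 nm FRET ratio 45 min after adding 0.125 microM importin beta to 50 nM Rango biosensor preincubated 5 min with compound (room temperature, PBS with DTT, Tween-20, BSA). No-importin wells as positive control.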
# miR-21 reporter = raises the signal of a miR-21 reporter; Potency, µM (top dose mostly 38.3 µM), without a hit: top-dose reporter change, positive = more light; HeLa miR-21 FLuc reporter, luciferase, 48 h; 340,000 tested, under 10 active; AID 2288; active = well fitted rising curve with a large enough effect; inconclusive = small, poorly fitted or top-dose-only effect; inactive = no such curve, though single readings can be large or run the other way;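 also: % of control where 0% means no effect; miR-21 action dims this reporter so a rising signal means less miR-21 action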
#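 Using DMEM plus 10% FBS, HeLa miR-21-FLuc cells are incubated with test compounds (final up to about 40uM) for 48 hours; firefly luciferase signal is then imaged following reagent-mediated lysis.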
# GLA inh pH 4.5 = inhibitors of human alpha-galactosidase A at pH 4.5; activity change, negative = inhibition, % at 105 µM; purified enzyme, 4-MU-alpha-Gal fluorescence, pH 4.5; 230,000 tested, under 10 active; P06280; AID 1467; inconclusive = small, poorly fitted or top-dose-only inhibition, or a rising curve; inactive = flat fitted curve, though single readings scatter; no compound was filed as active;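 also: 0% = full activity with enzyme and -100% = basal without enzyme; dose as in the result columns while the protocol names 77 µM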
# The depositor's hits bear a star; ? = inconclusive; / = no result given; & = joins results of further samples; [ ] = another dose, or the depositor's remark. Only part of the results is shown (hit frequency here may not be typical).
SMILES,Rango dissoc inh,Rango complex inh,miR-21 reporter,GLA inh pH 4.5
Cc1ccc([N+](=O)[O-])cc1NC(=S)NC(=O)C(C)(C)C,0%,3.1%,-8%,?
CN1CCc2cc(O)c(O)cc2C(c2ccccc2)C1 (stereo unspecified),9%,3.2%,/,-5
CCN(CC)C(=O)CSc1nc(O)cc(=O)n1C,5%,0.0%,-2%,-1
CCN(C(=O)COC(=O)c1ccccc1Cc1ccccc1)c1c(N)n(Cc2ccccc2)c(=O)[nH]c1=O,-11%,-3.9%,/,/
CC(=O)c1ccc(N2CCN(S(=O)(=O)c3c(C(=O)N4CCCC4)c(C)n(C)c3C)CC2)cc1,10%,2.9%,-10%,/
CCOC(=O)N1CCC(NC(=O)c2ccc(CS(=O)(=O)c3c(Cl)cccc3Cl)o2)CC1,-7%,-1.8%,6%,3
COc1ccc(CCNc2ccc(S(=O)(=O)N3CCN(C)CC3)cc2[N+](=O)[O-])cc1,6%,4.1%,/,/
Cc1cc(=O)oc2c(C)c(OC(=O)c3ccco3)ccc12,-11%,-4.0%,/,/
Cc1cc(C)nc(SCCn2c(N3CCCCC3)nc3c2c(=O)n(C)c(=O)n3C)n1,22%,-2.6%,0%,0
Cc1cccc(N2CCN(Cc3nc(C4CC4)no3)CC2)n1,10%,0.1%,-5%,-6
COc1ccc(S(=O)(=O)NCCSCc2cccc(C)c2)cc1Br,7%,4.9%,-9%,-11
COc1cc(OC)c(C(=O)COc2ncnc3ccccc23)c(OC)c1,2%,-0.7%,-1%,1
Cc1cc(Cl)ccc1NC(=O)c1ccc2c(c1)OCO2,-11%,1.7%,-28%,/
Cc1ccc(C(=O)Cn2nc(C)c([N+](=O)[O-])c2C)c(C)c1,-4%,-0.1%,-31%,-8
O=C(Nc1ccc(Cl)cc1)OCc1cc(-c2ccccc2Cl)on1,-10%,1.3%,-3%,-7
Cc1c(C(=O)N(C)CC(=O)Nc2cccc(F)c2)oc2c(Cl)cccc12,0%,4.0%,/,/
CCc1ccc2oc(=O)cc(CN(C)Cc3ccccc3)c2c1,21%,?,-2%,-10
O=C(NCCc1cn2ccccc2n1)C1CCCCC1,14%,0.1%,-15%,-8
C[C@H]1C=CC(=O)O[C@H]1c1ccccc1,-26%,-0.6%,/,/
Cc1ccc(NC(=O)/C(=C/c2cccc([N+](=O)[O-])c2)NC(=O)C2CCCCC2)c(C)c1,3%,-1.5%,1%,5
COc1ccc(NC(=O)c2cccc(-c3ccc(O)cc3)c2)cn1,?,?,2%,/
CC1CC(=O)NC(=O)N1Cc1ccccc1 (stereo unspecified),17%,-3.8%,/,/
O=C(Nc1cccc(NC(=O)C2CCCO2)c1)C1CCCO1 (stereo unspecified),14%,9.5%,-2%,/
O=C(O)CCCC(=O)OCCc1cc2ccccc2c(=O)o1,-23%,1.7%,/,/
CCOc1ccc(NC(=O)CN(C)c2ccc(S(=O)(=O)N(C(C)C)C(C)C)cn2)cc1OCC,14%,2.5%,-21%,5
# Later entries:
SMILES,Rango dissoc inh,Rango complex inh,miR-21 reporter,GLA inh pH 4.5
NC(=O)SC/C(=N\S(=O)(=O)c1ccccc1)Nc1ccccc1,0%,-1.9%,-1%,0
CCc1ccc(NC(=O)CCc2ccc(CC)o2)cc1,-2%,0.1%,-10%,/
CCCn1nc(NC(=O)c2ccco2)c2cc3ccc(C)cc3nc21,?,?,1%,9
Cc1nn(C(C)C(=O)NC2C(=O)N3C(C(=O)O)=C(CSc4nnnn4C)CSC23)cc1Cl (stereo unspecified),1%,-0.8%,-1%,-7[21.1 µM]
COc1ccccc1NC(=O)CSc1nnc(Cc2cccn2C)n1CCc1ccccc1,1%,-0.9%,7%,3
Cc1cccn2c(=O)c(C(=O)NCCCN3CCCCC3C)c(O)nc12 (stereo unspecified),2%,3.8%,0%&-5%,/
COc1cccc(NC(=O)CSCC(=O)Nc2ccccc2)c1,-15%,-3.8%,-20%,-3
CCCCn1c(N)c(N(CC(C)C)C(=O)CC2CCCC2)c(=O)[nH]c1=O,13%,-3.9%,/,/
Cc1ccccc1CNS(=O)(=O)c1ccc2c(c1)C(C)(C)C(=O)N2C,-8%,-2.4%,2%,/
CCOC(=O)C1C(c2cccs2)NC(=O)NC1(O)C(F)(F)F (stereo unspecified),6%,-0.7%,-1%,2
CC(C)C(=O)Nc1nnc(Sc2ccc(N(C)C)cc2)s1,2%,-3.5%,-7%,-14
Cc1ccc(OCCOCCN2CCCCC2)c([N+](=O)[O-])c1,-15%,-3.4%,-5%,4
O=C1NN(c2ccc(F)cc2)C(=O)/C1=C\c1cnn(-c2ccccc2)c1,/,/,1%,10
O=C(CN1C(=O)C2C3C=CC(C3)C2C1=O)Nc1cccc2c1CCCC2 (stereo unspecified),1%,-2.7%,1%,0
CCOC(=O)c1cccc(S(=O)(=O)N2CCOCC2)c1,14%,-2.6%,-1%,5
CC(O)CN(CC(C)O)c1ccc2c(c1)Cc1cc([N+](=O)[O-])ccc1-2 (stereo unspecified),?,18µM*,/,/
NS(=O)(=O)c1ccc(-n2cccc2C=O)cc1,-8%,-1.4%,-1%,5
CC(C)OC(=O)c1nnn(-c2nonc2N)c1CN1CCc2ccccc2C1,-7%,?,5%,-11
COc1cc2cnc(-c3ccccc3)c(C(=O)c3ccc(F)cc3)c2cc1OC,1%,-2.9%,/,/
O=C(O)CCN1C(=O)/C(=C\c2cccc(OCC(=O)Nc3ccc(Cl)cc3)c2)SC1=S,-3%,1.0%,-44%,-7
CCOc1ccc(NC(=S)NCCCn2ccnc2)cc1,5%,0.0%,-2%,-9
Nc1ncc(-n2cncn2)c(-c2ccccc2)n1,11%,0.5%,2%,-1
O=C(NCc1ccccc1Cl)c1cnc2ccccc2n1,6%,-0.6%,-23%,/
CN(Cc1ccccn1)C(=O)CC1C(=O)NCCN1Cc1cccc(Oc2ccccc2)c1 (stereo unspecified),10%,0.3%,0%,-11
O=C(O)/C=C\c1ccccc1Oc1cccc(Cl)c1,24%,?,1%,0

# Compound profiles, from the list above:
# Cc1nn(C(C)C(=O)NC2C(=O)N3C(C(=O)O)=C(CSc4nnnn4C)CSC23)cc1Cl (stereo unspecified) across the screens: Rango dissoc inh = 1%; Rango complex inh = -0.8%; miR-21 reporter = -1%; GLA inh pH 4.5 = -7[21.1 µM]
# CCOC(=O)C1C(c2cccs2)NC(=O)NC1(O)C(F)(F)F (stereo unspecified) across the screens: Rango dissoc inh = 6%; Rango complex inh = -0.7%; miR-21 reporter = -1%; GLA inh pH 4.5 = 2
# COc1cccc(NC(=O)CSCC(=O)Nc2ccccc2)c1 across the screens: Rango dissoc inh = -15%; Rango complex inh = -3.8%; miR-21 reporter = -20%; GLA inh pH 4.5 = -3

# (listing goes on)
SMILES,Rango dissoc inh,Rango complex inh,miR-21 reporter,GLA inh pH 4.5
Cc1cc2c(cc1S(=O)(=O)NCc1ccc(Cl)cc1)OCC(=O)N2,8%,3.4%,-8%,/
COC(=O)C1CCN(S(=O)(=O)CCNC(=O)c2cccc(OC)c2)CC1,-3%,?,/,/
CCOc1ccc(NC(=O)CSc2nnc(Cn3cnc([N+](=O)[O-])n3)n2CC)cc1,-9%,-4.2%,12%,1
O=C(Nc1ccon1)c1sc2ccccc2c1Cl,-1%,-1.5%,-42%,-11
CCC(CC)COC(=O)C1=C(C)NC(=O)NC1c1ccc([N+](=O)[O-])cc1 (stereo unspecified),-3%,-2.4%,11%,/
Cc1cccc2cc(COC(=O)C(C)(C)C)c(=O)[nH]c12,30%,0.1%,-4%,6
O=C1c2ccncc2C(=O)N1Cc1cccc(Cl)c1,2%,0.8%,-6%,6
COc1ccc(OCC(=O)Nc2ccc3c(c2)nc2n3CCSC2)cc1,-18%,2.7%,-19%,0
COc1cc(CCC(=O)Nc2ncc(C)s2)cc(OC)c1OC,-1%,-1.1%,6%,/
O=C(Nc1ccc(C(=O)N2CCCCC2)cc1)c1cccs1,-5%,-1.9%,-31%,/
CC1Cc2ccccc2N1C(=O)CSc1nnc(-c2ccc(S(=O)(=O)N3CCCC3)cc2)n1C (stereo unspecified),-10%,0.3%,10%,-3
COc1cccc(C(=O)O/N=C(\C)c2cnccn2)c1,3%,4.9%,0%,-22
CCCOC(=O)C1C2C=C[C@]3(CN(CCc4ccccc4)C(=O)[C@H]13)O2 (stereo partly specified),7%,0.7%,-2%,-2
COc1ccccc1N1CCN(C(CNC(=O)c2ccc3c(c2)OCO3)c2cccnc2)CC1 (stereo unspecified),0%,-2.9%,0%,0
COc1ccc(N2CCN(C(=O)CN(C)S(=O)(=O)c3cccs3)CC2)cc1,0%,-0.2%,-5%&-8%,/
CCOc1ccc(CCNC(=O)c2cc3c(s2)CS(=O)(=O)C3)cc1OCC,-1%,-5.0%,-2%,/
COc1cc2ccnc(Cc3cccc(OC)c3OC)c2cc1OC,2%,0.4%,8%,?
Cc1cc(C)cc(Oc2ccc(S(=O)(=O)N3CCN(C)CC3)cn2)c1,17%,1.8%,/,/
CCOC(=O)c1c(C)[nH]c(C(=O)COC(=O)c2ccccn2)c1C,0%,0.0%,-16%,10
CCN(CC)S(=O)(=O)c1cccc(-c2n[nH]c(=S)n2/N=C/c2ccc(OC(F)F)cc2)c1,0%,-2.2%,-14%,-11
NC(=O)CSc1nnc(-c2ccccc2)c(-c2ccccc2)n1,19%,-12%,0%,/
O=C(c1ccccc1)c1nc[nH]c1C(=O)Nc1ccccc1,23%,1.4%,-12%,2
CCC(C)c1ccc(NC(=S)NC(C)C2CCCO2)cc1 (stereo unspecified),-4%,-3.2%,-24%,2
Cc1[nH]nc2c1C(c1cc(Br)cs1)C(C#N)=C(N)O2 (stereo unspecified),-1%,6.7%,?,5
O=C(Nc1ccc2c(c1)OCCO2)c1ccccc1,9%,-0.5%,-16%,/
# Next part
SMILES,Rango dissoc inh,Rango complex inh,miR-21 reporter,GLA inh pH 4.5
CCOC(=O)N/N=C/c1ccc(F)cc1F,11%,?,-41%,10
CC(OC(=O)C1=COCCO1)C(=O)c1ccc(Br)cc1 (stereo unspecified),1%,1.5%,/,/
O=C(N/N=C/c1ccc(-c2ccc(Cl)c(C(=O)O)c2)o1)c1cc2c(ccc3ccccc32)o1,?,?,-9%,7
COc1cccc(CNc2cnc3ccccc3c2)c1O,-1%,-3.2%,-42%,2
COc1cccc(NC(=O)CC2C(=O)NC3CCCCC3N2C(=O)c2ccc(F)cc2)c1 (stereo unspecified),8%,4.2%,3%,-2
CCS(=O)(=O)N1CCN(C(=O)c2ccco2)CC1,13%,?,-4%,-2
CC(C)(C)NC(=O)C(c1ccc(F)cc1)N(Cc1cccs1)C(=O)c1ccc(CN2CCOCC2)o1 (stereo unspecified),1%,0.7%,-5%,3
O=[N+]([O-])c1cc(C(F)(F)F)ccc1N1CCCC(O)C1 (stereo unspecified),9%,-2.3%,-19%,-5
Cc1cc(OCc2cc(C(=O)NCC3(C)COC3)no2)cc(C)c1Cl,-3%,-4.3%,-4%,/
CC1(C)CC(=O)C(C=Nc2cc(C(=O)c3ccccc3)ccc2N)=C(O)C1,?,?,-21%,-4
Cc1nn(-c2ccccc2)c(C)c1/C=C/C(=O)OCC(=O)Nc1ncc(Cl)cc1Cl,4%,?,-4%,-1
O=C(COc1ccc(Cl)cc1Cl)NCCCn1ccnc1,-1%,0.6%,-11%,-3
COc1ccc(S(=O)(=O)N2CCCCC2)cc1NC(=O)Cc1c[nH]c2ccccc12,-4%,-0.1%,-8%,-10
Cc1ccc(S(=O)(=O)NCCC(=O)N2CCC(C)CC2)cc1,45%,-4.7%,/,/
Cn1nccc1C(=O)N/N=C/c1c(O)ccc2ccccc12,?,?,-4%,/
CCN(CC)C(=O)c1ccc(Nc2nnc(-c3ccc(O)cc3)c3ccccc23)cc1,-4%,-0.5%,19%,/
CCOc1ccc(N2CC(C(=O)Nc3ccc(S(=O)(=O)N4CCCCC4)cc3)CC2=O)cc1 (stereo unspecified),5%,-0.2%,/,/
O=C1CCC(=O)N1CC(=O)N1c2ccccc2Sc2ccccc21,3%,-0.6%,-2%,-3
O=C(CN(Cc1ccco1)C(=O)c1ccccc1)Nc1ccc(Cl)c(Cl)c1,-1%,-1.4%,-3%,1

# Source: PubChem BioAssay
